Screens (PubChem BioAssay)
2A StopGo = High Throughput Screening for Foot and Mouth Disease Virus Antivirals; Potency, µM (titrated, usually from 57.9 µM), for inactives: at the top dose signal change, negative = less light; human cells with a luciferase reporter of 2A StopGo recoding; control for the full effect not named in the record; hit rate 1.2% among 410,000; active = well fitted falling curve with a large enough effect; inconclusive = small, poorly fitted or top-dose-only effect; inactive = no such curve, though single readings can be large or run the other way; tested in HEK293T cells; note: % is set by controls: 0 for no effect and ±100 for the full control effect; nearly all actives have a fitted effect of over 45% in size; luciferase light after 4 h
RE007 growth inh = qHTS Assay for Inhibitors of the HIV-1 protein Vpr. S. pombe RE007 Vpr strain, BacTiter-Glo ATP luminescence, 24 h; control for the full effect not named in the record. Potency, µM (highest dose often 92.2 µM), without a hit: at the highest dose activity change, negative = less growth. hit rate 0.21% among 360,000. AID 651644, 2012; active = well fitted falling curve with a large enough effect; inconclusive = small, poorly fitted or top-dose-only effect; inactive = no such curve, though single readings can be large or run the other way;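 note: % is set by controls: 0 for no effect and ±100 for the full control effect; nearly all actives have a fitted effect of over 50% in size; the assay follows cell death caused by Vpr and the record does not say whether a fall means rescue or toxicity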
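Fission yeast RE007 carrying one integrated HIV-1 vpr copy, seeded at OD 0.01 in PMG+AL medium with 23 nL pinned compound. Grown 24 h at 30 degrees; viability read by BacTiter-Glo luminescence after 5 min.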
MARV entry inh = qHTS for inhibitors of binding or entry into cells for Marburg Virus; Potency, µM (doses to about 37.8 µM), for inactives: at the highest dose activity change, negative = inhibition, hits mostly inhibitors; hit rate 1.8% among 300,000; Marburg virus pseudotyped entry inhibition, cell reporter; control for the full effect not named in the record; about a third of the inactives were read at about 46 µM; active = well fitted inhibition curve with a large enough effect; inconclusive = small, poorly fitted or top-dose-only effect, or effect the other way; inactive = flat fitted curve, though single readings scatter; tested in HEK293 cells; about a fifth of its hits are not listed in these tables; note: % is set by controls: 0 for no effect and ±100 for the full control effect; luciferase read-out
Cruzain Triton = qHTS Assay for Promiscuous and Specific Inhibitors of Cruzain (with detergent) | Cruzipain (Trypanosoma cruzi), P25779 | purified cruzain, Z-FR-AMC fluorescence, 0.01% Triton | Potency, µM, inactives show max response, negative = inhibition, most hits filed as inhibitors | hit rate 0.43% among 200,000 | AID 1478, 2009;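 note: plate controls were neutral wells for no effect and buffer without enzyme for full effect; nearly all actives have a fitted effect of over 40% in size; top concentration of the series not given in the record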
Target sequence (P25779 123-467 limits assumed): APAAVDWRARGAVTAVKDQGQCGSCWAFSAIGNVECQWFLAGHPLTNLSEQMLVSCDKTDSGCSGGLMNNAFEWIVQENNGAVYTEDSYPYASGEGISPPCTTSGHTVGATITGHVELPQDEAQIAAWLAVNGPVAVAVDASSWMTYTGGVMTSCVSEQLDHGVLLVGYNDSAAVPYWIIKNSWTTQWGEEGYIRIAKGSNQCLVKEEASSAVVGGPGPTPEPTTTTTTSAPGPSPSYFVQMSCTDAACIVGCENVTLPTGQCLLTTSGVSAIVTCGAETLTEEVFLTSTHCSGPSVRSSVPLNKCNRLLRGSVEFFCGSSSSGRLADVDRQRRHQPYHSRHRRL
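Purified cruzain (1.5 nM final) was preincubated with compounds for 15 min at room temperature in 100 mM sodium acetate pH 5.5, 5 mM DTT, 0.01% Triton X-100. Reaction started with 2 uM Z-FR-AMC; AMC fluorescence change over 60 s gave activity.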
NS1 function inh = qHTS Assay for Inhibitors of Influenza NS1 Protein Function. S. cerevisiae slowed by influenza A NS1, growth recovery by OD600. Potency, µM (titrated, usually from 46.1 µM), for inactives: at the highest dose activity, positive = more growth. hit rate 0.4% among 270,000. AID 2326, 2010; active means well fitted rising curve with a large enough effect; inconclusive means small, poorly fitted or top-dose-only effect; inactive means no such curve, though single readings can be large or run the other way; note: nearly all actives have a fitted effect of over 50% in size
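Recovery from NS1-induced slow growth read by OD600 in budding yeast switched to galactose assay medium (pH 6.0, -URA) at 1:100 dilution. Compound 23 nl per well; the matching strain lacking NS1 serves as control.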
SARS PLpro yeast = qHTS of Yeast-based Assay for SARS-CoV PLP. S. cerevisiae expressing SARS-CoV PLpro, growth rescue; control for the full effect not named in the record. Potency, µM (series often up to 32.9 µM), inactives show top-dose activity, positive = growth rescue. hit rate 0.19% among 330,000; active means well fitted rising curve with a large enough effect; inconclusive means small, poorly fitted or top-dose-only effect; inactive means no such curve, though single readings can be large or run the other way; note: 0% is about no effect; nearly all actives have a fitted effect of over 55% in size; growth read by luminescence after 48 h
Cruzain inh noDet = qHTS Assay for Promiscuous and Specific Inhibitors of Cruzain (without detergent) | Cruzipain (Trypanosoma cruzi), P25779 | purified cruzain, Z-FR-AMC fluorescence, no detergent | Potency, µM, for inactives: max response, negative = inhibition, actives largely listed as inhibitors | hit rate 2.3% among 200,000 | AID 1476, 2009;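 note: plate controls were enzyme without inhibitor for no effect and buffer without enzyme for full effect; nearly all actives have a fitted effect of over 40% in size; top concentration of the series not given in the record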
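Detergent-free condition (0.00005% Triton X-100) in acetate buffer pH 5.5 with DTT. 1.5 nM enzyme and compound were pre-mixed 15 min, then 2 uM Z-FR-AMC substrate added; reaction progress from fluorescence change between first and third reads (60 s).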
Lassa entry inh = qHTS for Inhibitors of binding or entry into cells for Lassa Virus. AID 540256, 2011. Potency, µM (top dose mostly 37.9 µM), without a hit: at the top dose activity change, negative = inhibition, hits mostly inhibitors. hit rate 1.2% among 300,000. Lassa virus pseudotype entry inhibition, cell reporter; control for the full effect not named in the record; active means well fitted inhibition curve with a large enough effect; inconclusive means small, poorly fitted or top-dose-only effect, or effect the other way; inactive means flat fitted curve, though single readings scatter; tested in HEK293 cells; note: % is set by controls: 0 for no effect and ±100 for the full control effect; nearly all actives have a fitted effect of over 50% in size; luciferase read-out
Numbers without * were called inactive; ? = inconclusive; · = not tested or not shown; & = joins results of further samples; [ ] = another dose, or the depositor's remark. Unless noted, calls come from the whole dose curve; as a rule, active = well fitted curve in the direction sought with a large enough effect; inconclusive = small, poorly fitted or top-dose-only effect, or another doubt; inactive = no such curve, though single readings can be large; an effect the other way counts as inactive or inconclusive. Potency is the fitted concentration of half-maximal effect.

Compound	2A StopGo	RE007 growth inh	MARV entry inh	Cruzain Triton	NS1 function inh	SARS PLpro yeast	Cruzain inh noDet	Lassa entry inh
Cc1ccc(C)c(NC(=O)c2ccc3nc(CCc4ccccc4)oc3c2)c1	-4.8%	·	·	-0.9%	·	·	-11.3%	1.6%[46.1 µM]
COc1ccc2oc(C(=O)OCC(=O)NC(C)c3ccccc3)c(C)c2c1 (centres undefined)	21.8%	13.0%	15.3%[46.1 µM]	·	19.0%	-1.9%	·	-9.9%[46.1 µM]
Nc1cc(-c2ccc(Br)cc2)nn1S(=O)(=O)c1ccccc1	?	-8.2%	-0.8%	-1.1%	2.8%	-6.4%	-21.4%	1.4%
CCOC(=O)C(/C=C(\C#N)C(=O)OCC)=C(/N)N1CCN(c2c(C)cccc2C)CC1	-2.8%	2.7%	?	1.5%	6.5%	2.1%	13.4%	9.0%
CCOCc1nc(C)c(Cl)c(NS(=O)(=O)c2ccc(N)cc2)n1	-20.5%	-2.7%	16.6%	-0.6%	?	2.1%	-6.5%	10.0%
C=CCn1c(SCC(=O)Nc2c(C)cccc2C)nnc1-c1ccncc1	21.0%	12.3%	5.9%	0.5%	0.8%	-2.6%	6.6%	19.6%
CS(=O)(=O)c1cccc(NC(=O)c2ccc(Cl)c(Cl)c2)c1	0.9%	3.8%	7.4%[46.1 µM]	·	-8.2%	0.0%	·	-1.9%
COc1ccc(CNC(=O)C2CCCN(S(=O)(=O)c3cccc4nsnc34)C2)cc1 (centres undefined)	5.3%&-14.3%	6.0%	?	-4.3%	23.1%	-3.2%	7.9%	0.0%&8.4%[46.1 µM]
Cc1ccc(-c2[nH]ncc2C(=O)c2ccccc2C)c(O)c1	3.5%	11.0%	-3.6%[46.1 µM]	·	-12.3%	-0.3%	·	-22.2%[46.1 µM]
CN(CC(=O)Nc1ccccc1Cl)C(=O)COC(=O)Cc1ccc(F)cc1	-9.1%	4.6%	12.6%	·	7.4%	0.6%	·	5.2%
Cc1cccc(C)c1OCC(=O)N/N=C/c1ccncc1	-2.3%	12.3%	-4.8%	1.8%	5.6%	-8.9%	11.0%	1.4%
CCC(C)(C)NC(=O)CN(Cc1ccc(OC)cc1)C(=O)CCC(=O)Nc1nccs1	4.1%	6.5%	?	·	-4.7%	-1.9%	·	?
CN(C)N1C(N)=C(C#N)C(c2cccc([N+](=O)[O-])c2)C2=C1CC(C)(C)CC2=O (centres undefined)	14.9%	-16.0%	-5.2%	·	5.1%	-0.6%	·	?
Cc1cc2[nH]c(=O)c3ccccc3n2n1	35.9%[activator]	7.2%	-1.6%	4.8%	-15.9%	2.3%	2.4%	-0.1%
O=C(CSCc1ccc(Cl)cc1)Nc1ccc2c(c1)OCO2	24.3%	-6.2%	-2.2%[46.1 µM]	-5.1%	-12.4%	-13.0%	-9.2%	-1.6%
O=C(N1CCC(n2nc(-c3ccccc3)oc2=O)CC1)C1(c2ccccc2)CC1	24.0%	-10.6%	11.2%[46.1 µM]	·	6.2%	-11.8%	·	?
CN(C)c1ccc(/C=C2\C(=O)Nc3ccccc32)cc1	-4.4%	·	2µM*	-10.3%&-8.5%	-19.4%	·	-20.7%&-8.9%	?
Cc1ccc(-n2nc3c(=O)n(C(C)C(=O)NCc4ccccc4C)nc(C)c3c2C)cc1 (centres undefined)	?	·	·	-0.7%	·	·	-1.3%	-27.2%[46.1 µM]
COc1ccc2c(c1)[nH]c1c(=O)n(Cc3ccco3)cnc12	37.9%[activator]	-13.3%	?	2.3%	4.5%	0.1%	-11.4%	?
Cc1c(C2N3CC4(C)CN2CC(C)(C3)C4=O)c2ccccc2n1C (centres undefined)	2.8%	0.3%[3.69 µM]	?	3.7%	1.9%	5.2%	3.7%	8.0%
Cc1n[nH]c(C)c1S(=O)(=O)N1CCN(S(=O)(=O)c2cccc(F)c2)CC1	-3.6%	-4.7%	?	·	·	2.5%	·	2.7%
Cc1c(C(=O)OCC(C)C)[nH]c2c1C(=O)CC(c1ccco1)C2 (centres undefined)	0.0%	-7.9%	?	-9.0%	-18.0%	16.0%	13.8%	?
COc1ccccc1CNC(=O)c1ccccc1SCC(=O)NCc1ccco1	9.5%	10.3%	14.1%	·	·	6.8%	·	-1.9%
C/C(N)=C(/C#N)C(=O)CSc1nc2ccccc2c(=O)n1Cc1ccc(C)cc1	-25.1%	9.5%	?	·	·	4.0%	·	?
CC(C)c1ccc(/C=N/n2nnnc2Nc2ccccc2)cc1	-17.9%	-6.7%	4.0%	-1.4%	-4.8%	4.4%	-13.4%	-16.8%
CCOc1ccc(NC(=O)CCn2nc(C)c(S(=O)(=O)N3CCCCC3)c2C)cc1	-16.6%&-12.6%	4.0%	-1.5%&-1.5%[46.1 µM]	-0.7%	-3.5%	7.4%	17.5%	-5.2%&18.6%[46.1 µM]
Cc1nnc(NC(=O)C(C)Sc2nncn2C)s1 (centres undefined)	-11.3%	0.3%	·	-0.1%	-26.0%	0.6%	-2.5%	·
CCN(CC)CCOC(=O)C1(c2ccccc2)CCOCC1	-7.5%	-5.4%	?	1.0%	-2.6%	-3.5%	-4.4%	18.7%
CCCN(CCO)Cc1cccc(Br)c1	-7.3%	-0.5%	4.7%	0.3%	-3.1%	0.6%	-0.2%	-2.0%
CCOC(=O)c1ccc(-n2c(N)c(C(=O)OC)c3nc4ccccc4nc32)cc1	-20.9%	·	·	-1.0%	·	·	4.1%	-26.5%[46.1 µM]

Whole records from above.
CCN(CC)CCOC(=O)C1(c2ccccc2)CCOCC1 in the list: 2A StopGo: -7.5%; RE007 growth inh: -5.4%; MARV entry inh: ?; Cruzain Triton: 1.0%; NS1 function inh: -2.6%; SARS PLpro yeast: -3.5%; Cruzain inh noDet: -4.4%; Lassa entry inh: 18.7%
Cc1n[nH]c(C)c1S(=O)(=O)N1CCN(S(=O)(=O)c2cccc(F)c2)CC1 in the list: 2A StopGo: -3.6%; RE007 growth inh: -4.7%; MARV entry inh: ?; Cruzain Triton: ·; NS1 function inh: ·; SARS PLpro yeast: 2.5%; Cruzain inh noDet: ·; Lassa entry inh: 2.7%

Additional records:
Compound	2A StopGo	RE007 growth inh	MARV entry inh	Cruzain Triton	NS1 function inh	SARS PLpro yeast	Cruzain inh noDet	Lassa entry inh
Cn1c(SCc2nc(-c3ccc(Cl)cc3)no2)nnc1-c1ccco1	-20.1%	-4.9%	·	-3.9%	-68.2%	?	-3.9%	·
CCC(c1nnc(SCC(=O)Nc2ccc(S(N)(=O)=O)cc2)n1Cc1ccccc1)N(C)C (centres undefined)	-15.7%	3.9%	?	·	-1.2%	1.0%	·	-13.7%[46.1 µM]
S=c1[nH]nc(-c2cc(-c3ccccc3)n[nH]2)n1/N=C/c1ccc(Cl)c(Cl)c1	?	-5.0%	-16.3%[46.1 µM]	·	3.8%	0.4%	·	-22.9%
S=C(Nc1cccnc1)Nc1ccccn1	11.5%	-3.7%	·	·	2.9%	1.4%	·	·
Cc1ccccc1-n1nc2c(c1NC(=O)C(C)(C)C)CS(=O)(=O)C2	-16.8%	2.0%	·	·	1.2%	0.3%	·	·
Cn1c(-c2ccc(F)cc2)cnc1SCC(=O)N1CCCc2ccccc21	23.7%	-3.9%	-15.7%	-1.0%	-9.0%	15.0%	-3.8%	0.4%
O=C1C(=O)N(c2ccccc2)P(=O)(N(CCCl)CCCl)N1c1ccccc1	48.2%[activator]	8.0%	?	·	·	·	·	-13.2%[46.1 µM]
Cc1ccc(C(=O)Nc2ccc(C(F)(F)F)n(C)c2=O)cc1	30.2%[activator]	14.1%	-4.1%[46.1 µM]	·	2.0%	1.4%	·	?
CCNc1nc(NCC)nc(N(C)N)n1	-25.0%	-14.5%	?	2.5%	-4.6%	1.4%	11.8%	1.2%
COc1ccc(SCCCn2c(=O)c3c(ncn3C)n(C)c2=O)cc1	-13.4%	-1.2%	3.7%[46.1 µM]	·	-20.5%	-14.2%	·	-6.4%[46.1 µM]
CC(NC(=O)C(c1ccccc1)c1ccccc1)c1ccccc1 (centres undefined)	-23.8%	9.6%	-1.1%	·	·	·	·	0.0%
CN(C)S(=O)(=O)c1ccc2c(c1)N(CC(=O)Nc1ccc(F)cc1)C(=O)CS2	-9.5%	·	·	2.2%	·	·	-10.7%	-21.3%[46.1 µM]
CCOc1ccc(OCC)c(NC(=O)Cn2cccc2)c1	9.4%	5.6%	11.0%	2.0%	-8.0%	3.0%	-6.3%	-2.9%
O=c1ccc2cc(S(=O)(=O)N3CCN(c4cc(Cl)ccc4Cl)CC3)ccc2o1	-7.7%	-7.2%	-18.4%	3.7%	-135.5%	-21.6%	?	-22.1%
CC(C)CCNC(=O)C1CCC(CNc2c(N3CCC(C)CC3)c(=O)c2=O)CC1 (centres undefined)	-11.5%	-15.3%	-5.0%[46.1 µM]	·	4.5%	-3.4%	·	-4.0%
O=c1cc(-c2ccc(Cl)c(Cl)c2)[nH][nH]1	-27.9%	-22.3%	16.9%	-7.1%	3.4%	·	-15.6%	0.5%
Nc1ccc(/C=C/C(=O)c2cccs2)cc1	20.1%	?	?	·	-34.9%	-4.4%	·	12.8%
CC1=C(C(=O)Nc2ccccn2)C(c2cccnc2)n2nnnc2N1 (centres undefined)	·	5.4%	4.0%	3.7%	1.5%	4.0%	0.0%	8.9%
